Cruzain noTriton – inhibitors of Trypanosoma cruzi cruzain without detergent. Potency, µM, without a hit: max response, negative = inhibition, hits mostly inhibitors. 200,000 tested, 2.3% active. AID 1476. purified cruzain, Z-FR-AMC fluorescence, no detergent; active = well fitted curve in the direction sought with a large enough effect; inconclusive = small, poorly fitted or top-dose-only effect, or another doubt; inactive = no such curve, though single readings can be large; an effect the other way counts as inactive or inconclusive;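 also: plate controls were enzyme without inhibitor for no effect and buffer without enzyme for full effect; nearly all actives have a fitted effect of over 40% in size; top concentration of the series not given in the record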
Target sequence (P25779 123-467 limits assumed): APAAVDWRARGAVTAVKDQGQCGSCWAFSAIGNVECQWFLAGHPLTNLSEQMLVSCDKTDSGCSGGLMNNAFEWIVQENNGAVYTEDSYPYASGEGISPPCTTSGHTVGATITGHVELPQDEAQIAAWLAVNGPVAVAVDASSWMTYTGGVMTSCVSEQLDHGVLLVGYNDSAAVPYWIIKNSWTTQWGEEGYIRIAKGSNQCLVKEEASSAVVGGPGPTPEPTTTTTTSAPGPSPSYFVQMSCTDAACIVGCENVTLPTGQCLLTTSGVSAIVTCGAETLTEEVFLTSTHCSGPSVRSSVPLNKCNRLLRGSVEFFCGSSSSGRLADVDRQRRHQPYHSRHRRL
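Purified cruzain at 1.5 nM, pre-incubated 15 min with compound at room temperature in 100 mM sodium acetate pH 5.5, 5 mM DTT, 0.00005% Triton X-100. Reaction started with 2 uM Z-FR-AMC; AMC fluorescence increase over 60 s gives rate.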
NS1 inh – inhibitors of influenza NS1 protein function | S. cerevisiae slowed by influenza A NS1, growth recovery by OD600 | Potency, µM (top dose mostly 46.1 µM), for the others: at the highest dose activity, positive = more growth | 270,000 tested, 0.4% active; also: actives are rising curves; nearly all actives have a fitted effect of over 50% in size
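Recovery from NS1-induced slow growth read by OD600 in budding yeast switched to galactose assay medium (pH 6.0, -URA) at 1:100 dilution. Compound 23 nl per well; the matching strain lacking NS1 serves as control.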
Cruzain Triton – blocks cruzain activity in presence of Triton detergent. P25779. purified cruzain, Z-FR-AMC fluorescence, 0.01% Triton. Potency, µM, inactives show max response, negative = inhibition, usual class: inhibitors. 200,000 tested, 0.43% active; active = well fitted curve in the direction sought with a large enough effect; inconclusive = small, poorly fitted or top-dose-only effect, or another doubt; inactive = no such curve, though single readings can be large; an effect the other way counts as inactive or inconclusive;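 also: plate controls were neutral wells for no effect and buffer without enzyme for full effect; nearly all actives have a fitted effect of over 40% in size; top concentration of the series not given in the record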
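Detergent-containing arm of a paired screen for aggregation-based inhibition: 0.01% Triton X-100 present. Cruzain at 1.5 nM cleaved 2 uM Z-FR-AMC at pH 5.5 with 5 mM DTT; AMC fluorescence gain over 60 s measured activity.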
SARS PLpro yeast – SARS-CoV PLP inhibition in yeast; S. cerevisiae expressing SARS-CoV PLpro, growth rescue; control for the full effect not named in the record; Potency, µM (top dose mostly 32.9 µM), for inactives: top-dose activity, positive = growth rescue; 330,000 tested, 0.19% active; AID 485353; also: 0% is about no effect; nearly all actives have a fitted effect of over 55% in size; growth read by luminescence after 48 h
RE007 growth inh – less growth of the S. pombe RE007 Vpr strain; S. pombe RE007 Vpr strain, BacTiter-Glo ATP luminescence, 24 h; control for the full effect not named in the record; Potency, µM (doses to about 92.2 µM), for the others: top-dose activity change, negative = less growth; 360,000 tested, 0.21% active; active = well fitted falling curve with a large enough effect; inconclusive = small, poorly fitted or top-dose-only effect; inactive = no such curve, though single readings can be large or run the other way;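 also: % is scaled to controls: 0 for no effect and ±100 for the full control effect; nearly all actives have a fitted effect of over 50% in size; the assay follows cell death caused by Vpr and the record does not say whether a fall means rescue or toxicity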
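Fission yeast strain RE007, carrying one chromosomally integrated HIV-1 vpr copy, was seeded at OD 0.01 in PMG+AL medium with 23 nL pinned compound. After 24 h at 30 °C and 99% humidity, viability was read by BacTiter-Glo luminescence.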
LASV entry inh – inhibitors of Lassa virus binding or cell entry; Potency, µM (series often up to 37.9 µM), for the others: at the highest dose activity change, negative = inhibition, actives largely listed as inhibitors; 300,000 tested, 1.2% active; Lassa virus pseudotype entry inhibition, cell reporter; control for the full effect not named in the record; AID 540256; active means well fitted inhibition curve with a large enough effect; inconclusive means small, poorly fitted or top-dose-only effect, or effect the other way; inactive means flat fitted curve, though single readings scatter; tested in HEK293 cells; also: % is scaled to controls: 0 for no effect and ±100 for the full control effect; nearly all actives have a fitted effect of over 50% in size; luciferase read-out
StopGo reporter – lowers the luciferase signal of an FMDV 2A StopGo reporter. human cells with a luciferase reporter of 2A StopGo recoding; control for the full effect not named in the record. 410,000 tested, 1.2% active. Potency, µM (series often up to 57.9 µM), without a hit: top-dose signal change, negative = less light; active = well fitted falling curve with a large enough effect; inconclusive = small, poorly fitted or top-dose-only effect; inactive = no such curve, though single readings can be large or run the other way; tested in HEK293T cells; also: % is scaled to controls: 0 for no effect and ±100 for the full control effect; nearly all actives have a fitted effect of over 45% in size; luciferase light after 4 h
Marburg entry inh – Marburg virus entry inhibition; Marburg virus pseudotyped entry inhibition, cell reporter; control for the full effect not named in the record; about a third of the inactives were read at about 46 µM; Potency, µM (series often up to 37.8 µM), for the others: at the highest dose activity change, negative = inhibition, hits mostly inhibitors; 300,000 tested, 1.8% active; AID 540276; active = well fitted inhibition curve with a large enough effect; inconclusive = small, poorly fitted or top-dose-only effect, or effect the other way; inactive = flat fitted curve, though single readings scatter; tested in HEK293 cells; about a fifth of its hits are not listed in these tables; also: % is scaled to controls: 0 for no effect and ±100 for the full control effect; luciferase read-out
The depositor's hits bear a star; ? = inconclusive; / = not tested or not shown; [ ] = another dose, or the depositor's remark. Unless noted, calls follow the shape of the dose curve; as a rule, active means well fitted rising curve with a large enough effect; inconclusive means small, poorly fitted or top-dose-only effect; inactive means no such curve, though single readings can be large or run the other way. Potency is read from the fitted curve at half-maximal effect.

SMILES	Cruzain Triton	RE007 growth inh	LASV entry inh	Marburg entry inh	SARS PLpro yeast	NS1 inh	StopGo reporter	Cruzain noTriton
CCN(CC)C(=O)Cn1cc(S(=O)(=O)CC(=O)NCc2ccc(F)cc2)c2ccccc21	/	-3.0%	0.0%	7.3%	-4.0%	6.5%	-4.9%	/
COc1ccccc1NS(=O)(=O)c1cccc(NC(=O)c2[nH]c(C)c(C(C)=O)c2C)c1	/	-14.3%	/	/	-0.2%	-19.4%	-29.2%	/
Nc1c(C(=O)NCc2ccc(Cl)cc2)sc2nc3c(c(C(F)(F)F)c12)CCC3	-4.6%	9.5%	-28.0%[14.3 µM]	-24.6%	-8.6%	7.4%	22.0%	-27.2%
Cc1ccnc(NC(=O)c2ccc3c(c2)C(=O)N(CCC(C)C)C3=O)c1	/	-14.0%	3.5%	4.8%	-1.4%	-4.4%	14.8%	/
CCN1CC(CN(C)Cc2nc(-c3ccc(Cl)cc3)no2)CC1=O (stereo unspecified)	/	4.6%	/	/	1.0%	-1.8%	?	/
CC(=O)c1ccc(N2CCN(C(=S)Nc3cccc(Cl)c3)CC2)cc1	0.5%	/	-13.7%	0.1%	14.8%	?	9.0%	-23.2%
Cc1ccc(S(=O)(=O)NCc2ccc(C(=O)NCCc3ccc(S(N)(=O)=O)cc3)cc2)cc1	/	-1.3%	10.6%[46.1 µM]	0.3%[46.1 µM]	0.9%	-0.2%	-9.9%	/
O=C(Cc1cccs1)NCc1ccccc1Br	/	16.3%	/	/	0.7%	-5.6%	56.4%[activator]	/
CCN1C(=O)c2ccccc2S(=O)(=O)c2ccc(C(=O)NCc3ccc(C)cc3)cc21	-2.4%	/	-14.0%[46.1 µM]	-1.0%[46.1 µM]	/	/	-3.0%	5.0%
O=C(CN1CCC(C(=O)c2ccc3c(c2)OCCO3)CC1)Nc1ccccc1C(F)(F)F	/	-13.9%	/	/	/	-20.3%	/	/
COc1cccc(C2C3=C(CC(C)(C)CC3=O)OC(N)=C2[N+](=O)[O-])c1 (stereo unspecified)	1.1%	21.0%	11.1%	?	1.1%	5.9%	2.6%	-5.6%
Cn1ncc(Cl)c1C(=O)N1CCN(C23CC4CC(CC(C4)C2)C3)CC1	/	15.6%	?	8.6%	-3.0%	18.5%	-22.6%	/
CCOC(=O)C1=C(COC(=O)/C=C/c2cccc([N+](=O)[O-])c2)NC(=O)NC1C (stereo unspecified)	/	-4.3%	23.3%	-7.3%[46.1 µM]	-2.8%	/	-4.6%	/
Cc1cccc(NC(=O)Cn2cc(C(=O)C3CC3)c3ccccc32)c1C	/	1.0%	?	-20.9%[46.1 µM]	-0.8%	0.2%	0.0%	/
CCOC(=O)C1CN(S(=O)(=O)c2ccc(C)cc2)c2cc(S(=O)(=O)CC)ccc2O1 (stereo unspecified)	-2.9%	-13.3%	?	16.8%	-12.9%	-17.6%	20.1%	22.4%
Brc1ccc(-c2nnc3n2C2(CCCC2)Cc2ccccc2-3)o1	-2.2%	-4.5%	8.0%	-4.0%	-32.3%	-6.0%	?	21.3%
CC(=O)c1c(C)[nH]c(C(=O)CN2C(=O)NC(C)(c3ccc4c(c3)OCCO4)C2=O)c1C (stereo unspecified)	/	-11.3%	-5.2%	-7.4%	-2.0%	/	-11.1%	/
O=C(CCNc1n[nH]c(=O)[nH]c1=O)N/N=C\c1ccc(Br)cc1	/	12.9%	/	/	-3.3%	5.9%	-17.8%	/
CCCC(=O)Nc1cc2c3c(c1)C(C)C(=O)N3CCC2 (stereo unspecified)	/	-5.4%	/	/	-6.9%	1.8%	5.0%	/
CN(C)S(=O)(=O)N1CCc2ccccc21	0.6%	7.2%	-4.9%	-1.4%[46.1 µM]	-0.1%	-8.2%	-1.0%	-7.4%
COc1ccc(NC(=O)NN2CCN(C)CC2)c(OC)c1	/	1.0%	21.3%[46.1 µM]	0.4%[46.1 µM]	1.1%	-0.7%	10.0%	/
COCCn1c(=O)[nH]c2cc(C(=O)N3CCN(Cc4ccc5c(c4)OCO5)CC3)ccc2c1=O	/	11.9%	3.3%[46.1 µM]	2.1%[46.1 µM]	/	-0.9%	-27.2%	/
O=C(Nc1c2c(nn1-c1ccccc1)CS(=O)(=O)C2)c1cccs1	/	-0.8%	-28.3%	-7.1%	18.6%	9.2%	-14.1%	/
CCOC(=O)C1CCN(Cc2cccc(OCc3ccccc3)c2)CC1	/	-19.1%	/	/	0.3%	-3.8%	-12.4%	/
Cc1nn(C)cc1N1C(=O)c2cccc3c(N)ccc(c23)C1=O	/	-10.8%	-13.0%	-12.2%[46.1 µM]	0.6%	4.9%	6.6%	/
Cc1ccc(S(=O)(=O)N2CCCC2C(=O)NCc2ccc3c(c2)OCO3)cc1 (stereo unspecified)	/	3.3%	-0.5%	2.0%[46.1 µM]	1.1%	0.0%	-0.5%	/
Cc1ccccc1-n1nc2c(c1NC(=O)COc1ccc(Cl)cc1)CS(=O)C2 (stereo unspecified)	2.3%	4.5%	/	/	2.3%	4.8%	-11.2%	-10.2%
COc1cc(C(=S)N2CCOCC2)cc(OC)c1OC(=O)c1cc([N+](=O)[O-])c(C)c([N+](=O)[O-])c1	-1.9%	-1.0%	0.4%	-10.9%	-5.7%	4.2%	-0.4%	16.2%
COc1ccc(OCc2nnc(SCC(=O)Nc3ccccc3Cl)o2)cc1	/	-24.0%	/	1.0%[46.1 µM]	-0.3%	-1.0%	6.3%	/
O=C1CC(Sc2ncn[nH]2)C(=O)N1c1ccccc1 (stereo unspecified)	5.3%	-1.6%	31.3%	-0.5%	-32.6%	-34.4%	-10.3%	-0.6%
COc1cc(CNCCCN2CCOCC2)cc(Br)c1OCC(=O)N1CCCCC1	5.8%	-6.3%	-13.2%	?	-0.6%	0.4%	-16.6%	1.8%
CC(C)(C)NC(=O)CN1CCN(C(=O)CCl)CC1	/	-14.7%	?	?	1.5%	/	?	/
CN(CCNC(=O)c1ccc(N2CCCC2=O)cc1)CCc1ccccc1	-1.8%	-10.1%	-2.0%	-27.1%	-8.4%	-12.3%	-20.8%	0.1%
O=C(Nc1ccccc1)c1cccc(S(=O)(=O)N2CCCCC2)c1	-4.2%	6.0%[3.69 µM]	1.4%	-4.3%	-2.7%	-4.4%	-16.4%	2.1%
O=[N+]([O-])c1cccnc1Oc1ccc(C2SCCS2)cc1	/	3.4%	/	-3.2%	0.5%	5.3%	55.7%[activator]	/
Cc1cc(Sc2nccn2C)ncc1[N+](=O)[O-]	-4.6%	4.6%	9.5%	14.1%	6.9%	9.6%	8.0%	-4.0%
CSC(=NCc1cccnc1)NS(=O)(=O)c1cccs1	1.5%	-10.1%	8.6%	9.7%	-5.7%	-1.9%	5.0%	6.7%
CCN(CC(=O)Nc1cc(C)c(Cl)cc1OC)CC(=O)NC1CCS(=O)(=O)C1 (stereo unspecified)	/	1.4%	-0.1%[46.1 µM]	3.6%[46.1 µM]	2.6%	1.4%	-6.1%	/
CCC(C)(C)C(=O)Nc1ncc(S(=O)(=O)c2ccc([N+](=O)[O-])cc2)s1	-12.4%	20.8%	-2.6%	6.1%[46.1 µM]	-3.6%	7.3%	?	-9.7%
CCCCCc1c(O)nc(SCCN(C)C)[nH]c1=O	/	9.4%	/	/	-0.2%	-0.7%	-2.3%	/
COc1ccc(C)cc1NC(=O)CSc1nnc(-c2cc3cccc(OC)c3o2)n1N	-5.9%	0.1%	-16.7%	-31.5%	/	?	0.0%	-9.8%
CCN1CCN(S(=O)(=O)c2ccc(OC)c(NC(=O)c3ccccc3F)c2)CC1	/	6.1%	-28.2%	7.3%	0.1%	/	20.1%	/
CC(C)(C)NC(=O)C(=O)NN=C1CCCCCC1	/	-3.3%	?	8.5%[46.1 µM]	0.3%	-1.9%	52.2%[activator]	/
Cc1ccc(NC(=O)Cn2cc(S(=O)(=O)N3CCC(C)CC3)c3ccccc3c2=O)c(Br)c1	-0.6%	/	-0.1%[46.1 µM]	15.6%[46.1 µM]	/	/	13.8%	-4.0%
CCS(=O)(=O)c1nc(S(=O)(=O)c2ccc(Cl)cc2)c(N2CCCC2)s1	/	0.4%	/	/	-10.7%	-7.2%	54.4%[activator]	/
CCOc1ccc(NC(=O)CSc2nc(NS(=O)(=O)c3ccc(C)cc3)cc(=O)[nH]2)cc1	/	-12.6%	4.0%[46.1 µM]	9.0%[46.1 µM]	-4.7%	0.3%	6.0%	/
O=C(Nc1ccc(CN2CCOCC2)cc1)c1cc2ccccc2o1	-4.8%	-7.2%	-8.6%	?	0.5%	-4.7%	/	-10.2%
COC(=O)COc1ccc(Oc2nc(NC(C)(C)C)nc(N(C)C)n2)nn1	-1.3%	/	2.7%[46.1 µM]	5.5%[46.1 µM]	/	/	-6.3%	-0.4%
COc1ccc(Nc2oc(COc3ccc(Cl)cc3)nc2C#N)cc1	-5.8%	5.6%	?	?	3.6%	-3.3%	?	-12.3%
CC(Sc1nnc(Cc2cccs2)n1C1CCCCC1)C(=O)N1CCc2ccccc21 (stereo unspecified)	-3.3%	21.1%	-22.1%	?	-13.3%	-8.1%	7.8%	1.5%
COc1ccc2oc(C(=O)N3CCc4ccccc43)c(C)c2c1	/	-14.3%	?	?	-2.3%	-0.6%	?	/
CC(=O)Oc1ccc2oc(=O)c3c(c2c1)CCCN3C(=O)CN1CCOCC1	/	-11.2%	?	6.0%	3.9%	/	7.2%	/
CC(C)Oc1ccc(C(=O)NCC(c2ccc(N(C)C)cc2)N2CCCC2)cc1 (stereo unspecified)	0.1%	/	-29.6%[46.1 µM]	/	/	/	-31.0%	0.3%
CC(C)(C)n1nc2c(c1NC(=O)c1ccc(F)c(F)c1)CS(=O)(=O)C2	/	-14.5%	-0.4%	?	4.4%	0.6%	-5.0%	/
CC1=C(C(=O)OC(C)C)C(c2ccc(Br)s2)NC(=O)N1C (stereo unspecified)	-9.3%	10.1%	-4.3%	5.7%	4.4%	9.0%	?	5.7%

Screens deposited in PubChem by National Center for Advancing Translational Sciences (NCATS).
